Bst PK mod: modulators of Bacillus stearothermophilus pyruvate kinase. Potency, µM. 51,000 tested, 1.2% active. partly purified Bacillus stearothermophilus pyruvate kinase, luminescence ATP production; ribose 5-phosphate activator present at AC10; in the data active means potency below about 11 µM; inconclusive means mostly about 12 µM to 25 µM; inactive means weaker than that;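 the screen sought inhibitors and activators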;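 note: potency is the fitted concentration of half-maximal effect; scaled between full activation by ribose 5 phosphate and full inhibition by luteolin; about four in five hits inhibit and the cells do not say which; series up to 57 µM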
YjeE inh: inhibitors of E. coli YjeE (TsaE); purified YjeE, fluorescence polarisation of a bound ADP probe; AID 605; Potency, µM; 71,000 tested, 0.05% active; P0AF67; active = well fitted falling curve; inconclusive = weaker or top-dose-only fall, or a rising curve; inactive = flat or poorly fitted curve;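 note: top concentration of the series not given in the record; excess ADP was the control for the full effect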
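Fluorescence polarization of a BODIPY Texas Red–ADP probe (2 uM) bound to purified YjeE (10 uM) was read after 15 min room-temperature incubation with compounds. Loss of polarization marks inhibitors; ADP serves as titrated control.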
* = called active by the depositor; i = inactive; ? = inconclusive; . = not tested or not shown.

No.	SMILES	Bst PK mod	YjeE inh
1	CC(C)(O)/C=C\C(=O)[C@](C)(O)[C@H]1[C@H](O)C[C@]2(C)[C@@H]3CC=C4[C@@H](C=C(O)C(=O)C4(C)C)[C@]3(C)C(=O)C[C@@]12C	.	i
2	CCOC(=O)C1=C(C)OC(N)=C(C#N)C12C(=O)Nc1ccc(C)cc12 (stereo not drawn)	>57	i
3	COc1ccc2c3c([nH]c2c1)C(C)=NCC3	.	i
4	CCCCN1CCC(C#N)(Nc2ccccc2)CC1	>57	i
5	CCCCCCn1c(=O)c(C(=O)Nc2ccncc2)c(O)c2ccccc21	.	i
6	COc1ccc(C(=O)OC2C[C@H]3CC[C@@H](C2)N3C)cc1OC (stereo partly drawn)	.	i
7	O=c1[nH]c(=O)n(CCC2=CCCCC2)c(O)c1C=NCc1cccnc1	>57	i
8	CC(C)[C@@H]1CN[C@H](C(=O)O)[C@@H]1CC(=O)O	.	i
9	COc1ccccc1-n1c(O)c(C=Nc2c(C)n(C)n(-c3ccccc3)c2=O)c(=O)[nH]c1=O	>57	i
10	O=C(CCCN1CCC2(CC1)C(=O)N(Cc1cccc(F)c1)CN2c1ccccc1)c1ccc(F)cc1	.	i
11	CCC(C)NC(=O)c1c(N)n(Cc2ccc3c(c2)OCO3)c2nc3ccccc3nc12 (stereo not drawn)	>57	i
12	O=P(O)(O)C#Cc1ccccc1	.	i
13	CN(C)c1ccc2c(c1)N=C(c1ccco1)OP2(=S)N1CCOCC1 (stereo not drawn)	>57	i
14	C[C@]12CC[C@H](O)C[C@@H]1CC[C@H]1[C@H]2CC[C@]2(C)C(=O)CC[C@@H]12	.	i
15	O=C1NC(=O)C(CCc2ccncc2)(c2ccccc2)C(=O)N1	>57	i
16	FC(F)(F)c1ccc2c(c1)ncn2C1CCN(Cc2nnnn2C2CCCCC2)CC1	>57	i
17	O=C(c1cc(Br)ccc1Cl)N1CCC2(CC1)OCCO2	>57	i
18	Cc1cc(C)c(C2=NOC(O)(C(F)(F)F)C2)c(=O)[nH]1 (stereo not drawn)	>57	i
19	COc1ccc(C(CC(=O)N2CCC3(CC2)OCCO3)NS(=O)(=O)c2ccc(OC)cc2)cc1 (stereo not drawn)	>57	i
20	Cc1ccc(Cn2nnnc2CN2CCC(n3nnc4ccccc43)CC2)cc1	>57	i
21	CO[C@@H]1CC=C2CCN3CCC4=C(CC(=O)OC4)[C@]23C1	.	i
22	COc1ccc2c(c1)CC1(CN2C)C(=O)NC(=O)N(c2ccc(F)cc2)C1=O (stereo not drawn)	>57	i
23	C[N+](C)(C)CC#CCN1CCCC1=O	.	i
24	CC(=NCc1ccc(F)cc1)c1c(O)n(C)c(=O)n(C)c1=O	>57	i
25	COc1cc(Br)cc(CN2CCN(C)CC2)c1O	.	i
26	CN1[C@@H]2CCC[C@H]1CC(=O)C2	.	i
27	CCC(=NCCN1CCOCC1)c1c(O)n(-c2ccccc2C)c(=O)[nH]c1=O	>57	i
28	COCC(=O)N1CCC2(CCCN(Cc3ccncc3)C2)CC1	.	i
29	O=C(O)COc1ccc(Cl)cc1Cl	.	i
30	Cc1c(C(=O)c2ccc3ccccc3c2)c2cccc3c2n1[C@H](CN1CCOCC1)CO3	.	i
31	OCCNc1c2c(nc3ccccc13)CCCC2	.	i
32	Cc1cc(-c2cc(C)c(N)c(C)c2)cc(C)c1N	.	i
33	Clc1nc(Cl)nc(Cl)n1	.	i
34	CC(=O)OC1(c2ccccc2)CCN(C)C2CCCCC21 (stereo not drawn)	>57	i
35	Cc1cccc(N2CCc3c2nc2ccccc2c3N)c1	.	i
36	CCC(=NCC1CCCO1)c1c(O)n(-c2ccccc2)c(=O)[nH]c1=O (stereo not drawn)	>57	i
37	CCCCCCn1c(N)c(C(=O)NCCN2CCOCC2)c2nc3ccccc3nc21	>57	i
38	c1ccc(CCCN2CCN(CCOC(c3ccccc3)c3ccccc3)CC2)cc1	.	i
39	CCC[N+](=O)[O-]	.	i
40	COc1ccc(-n2c(=O)[nH]c3ccccc3c2=O)c(OC)c1	>57	i
41	CC1CC2(O)c3nonc3CCC2N1O (stereo not drawn)	>57	i
42	C#CCN(C)C(C)Cc1ccccc1 (stereo not drawn)	>25.6	.
43	NCCc1c[nH]c2ccc(O)cc12	.	i
44	COc1ccc(CCn2c(O)c(C=NCCCN(C)C)c(=O)[nH]c2=O)cc1OC	>57	i
45	CCCCCC[N+](=O)[O-]	.	i
46	CC(=O)OCC(=O)[C@@H]1CC[C@H]2[C@H]3CC[C@H]4C[C@@H](O)CC[C@]4(C)[C@@H]3C(=O)C[C@@]12C	.	i
47	O=C1C2CCN(CC2)C1Cc1ccc(OCCOc2ccccc2)cc1 (stereo not drawn)	>57	i
48	CCN(CC)C(=O)N[C@H]1C[C@H]2c3cccc4[nH]cc(c34)C[C@@H]2N(C)C1	.	i
49	CC(C)(c1ccc(OC[C@@H]2CO2)cc1)c1ccc(OC[C@H]2CO2)cc1	.	i
50	Cc1ccc2c(c1)C1CN(C)CCC1N2C(=O)c1ccco1 (stereo not drawn)	>57	i

Entries listed so far that contain a cyano group, in the order listed:
No.	SMILES	Bst PK mod	YjeE inh
2	CCOC(=O)C1=C(C)OC(N)=C(C#N)C12C(=O)Nc1ccc(C)cc12 (stereo not drawn)	>57	i
4	CCCCN1CCC(C#N)(Nc2ccccc2)CC1	>57	i

Other structures.
No.	SMILES	Bst PK mod	YjeE inh
51	COc1ccc2c(c1)c(C(=O)CN1CCN(C)CC1)c(C)n2Cc1ccccc1	>57	i
52	COC(=O)C1=CCCN(C)C1	.	i
53	c1ccc2c(c1)OC[C@@H](C1=NCCN1)O2	.	i
54	CCCCn1c(O)c(C=NC2CCCCC2N)c(=O)[nH]c1=O (stereo not drawn)	>57	i
55	O=C(Nc1ccccc1OC(=O)N1CCOCC1)N1CCOCC1	>57	i
56	CN(C)[C@@H]1C(=O)C(C(N)=O)=C(O)[C@]2(O)C(=O)C3=C(O)c4c(O)cccc4[C@](C)(O)[C@H]3C[C@@H]12	.	i
57	O=C(O)C[O][Sb][O]CC(=O)O	.	i
58	COP(=S)(OC)Oc1ccc([N+](=O)[O-])cc1	.	i
59	CCN1CCN(Cc2nnnn2C(C)(C)C)CC1	>57	i
60	CNC[C@H](O)c1ccc(O)c(OC)c1	.	i
61	O=c1c2ccccc2nc(-c2ccco2)n1-c1ccncc1	.	i
62	C[C@H](Br)CN(C[C@H](C)Br)c1ccc2c(c1)Cc1ccccc1-2	.	i
63	OC[P+](CO)(CO)CO	.	i
64	CCCCn1c(O)c(C(C)=NCc2ccc(F)cc2)c(=O)[nH]c1=O	>57	i
65	CC(C)[C@]12CC(=O)[C@H](C)[C@H]1C2	.	i
66	C[C@@H](O)CN(CCN(C[C@@H](C)O)C[C@@H](C)O)C[C@@H](C)O.O=[N+]([O-])O.[Cu]	.	i
67	O=C(CN1C(=O)CN=C(c2ccccc2Cl)c2cc(Cl)ccc21)NCc1ccco1	>57	i
68	C[N+]12CN3CN(CN(C3)C1)C2	>57	i
69	COc1ccc2[nH]cc(CCN(C)C)c2c1	>25.6	i
70	C=C(C)CCl	.	i
71	CS(=O)(=O)N1CCC2(CC1)CN(Cc1ccncc1)C2	.	i
72	CC(C)Cn1cc(C(=O)N2CCC3(CC2)OCCO3)c2c3ccccc3n(C)c2c1=O	>57	i
73	C=C(C)CN1CC[C@@]23c4c5ccc(O)c4O[C@H]2c2[nH]c4ccccc4c2C[C@]3(O)[C@@H]1C5	.	i
74	CC(C)(C)OO	.	i
75	NC(=NCCC[C@@H](N)C(=O)O)N[N+](=O)[O-]	.	i
76	COc1ccc(NC(=O)N2CC3(CCN(C(=O)Oc4ccccc4)CC3)C2)cc1	.	i
77	COC(C)(C)C	.	i
78	CNP1(NC)=Nc2nn(-c3ccccc3)c(N)c2C(c2ccccc2)=N1	>57	i
79	COC(=O)c1cc(COc2cc(C)cc3oc(=O)c4c(c23)CCC4)c(C)o1	>57	i
80	CCCC(=O)Cl	.	i
81	Nc1ccccc1C(=O)O	.	i
82	O=c1[nH]c(=O)n(CCc2ccccc2)c(O)c1C=NCCN1CCNCC1	>25.6	.
83	CC(C)[C@@]1(NC(=O)[C@@H]2C=C3c4cccc5[nH]cc(c45)C[C@H]3N(C)C2)O[C@@]2(O)[C@@H]3CCCN3C(=O)[C@H](Cc3ccccc3)N2C1=O	>25.6	.
84	C=CCn1c(O)c(C(CC)=Nc2ccc(N(CC)CC)cc2)c(=O)[nH]c1=O	>57	i
85	N#CC1=C(N)Oc2c(c(=O)oc3ccccc23)C1c1cccnc1 (stereo not drawn)	>57	i
86	CC(=O)C1C(=O)NC23CCCCC2C1c1ccccc1O3 (stereo not drawn)	>57	i
87	ClCCOCCCl	.	i
88	Nc1ccc(Br)cc1	.	i
89	CN1CCc2nc3sc(C#N)c(N)c3c(-c3cccs3)c2C1	>25.6	.
90	CCCC/C=C/[C@@H](NP(=O)(c1ccccc1)c1ccccc1)c1ccccc1OC	.	i
91	CCS(=O)(=O)N1CCC(C(=O)N2CCC3(CC2)OCCO3)CC1	>57	i
92	CN1C(=O)c2ccccc2Sc2ccc(C(=O)N3CCC4(CC3)OCCO4)cc21	>57	i
93	OC(c1ccccc1)(c1ccccc1)C1CCNCC1	.	i
94	CCCCn1c(O)c(C(C)=NCCc2ccccc2)c(=O)[nH]c1=O	>57	i
95	CNCCc1nc(N)n[nH]1	>25.6	.
96	Cc1ccccc1-n1c(O)c(C=Nc2ccc(N(C)C)cc2)c(=O)[nH]c1=O	.	i
97	Nc1ccc(Sc2ccc(N)cc2)cc1	.	i
98	O=C(NCc1ccccn1)c1ccccc1Cl	>57	i
99	COc1ccc(CC[n+]2cc(/N=C(\C)[O-])on2)cc1OC	>57	i
100	O=C(CNS(=O)(=O)c1cccs1)N1CCC2(CC1)OCCO2	>57	i

(continued)
No.	SMILES	Bst PK mod	YjeE inh
101	ClCC(Cl)Cl	.	i
102	C[C@]12CCC(=O)C=C1CCC1C2CC[C@@]2(C)C1CC[C@@]2(O)CC#N (stereo partly drawn)	>57	i
103	CCc1nc2ccccc2c(=O)n1-c1cccc(OC)c1	>57	i
104	Oc1ccc2[nH]cc(CCCCN3CC=C(c4ccccc4)CC3)c2c1	.	i
105	NCC(O)c1ccc(O)cc1 (stereo not drawn)	.	i
106	COc1cc2nc(CN3CC=C(c4ccccc4)CC3)[nH]c(=O)c2cc1OC	>57	i
107	O=C(c1ccc2nc(-c3ccco3)c(-c3ccco3)nc2c1)N1CCC2(CC1)OCCO2	>57	i
108	C=C(C)[C@H]1Cc2c(ccc3c2O[C@@H]2COc4cc(OC)c(OC)cc4[C@@H]2C3=O)O1	.	i
109	N[C@@H](Cc1ccc(N(CCCl)CCCl)cc1)C(=O)O	.	i
110	O=C(Nc1ccccc1)N1CCC2(CC1)CCN(C(=O)Oc1ccccc1)CC2	.	i
111	CNC(=O)OCC[N+](C)(C)C	.	i
112	CCN(CC)C(=O)c1ccc(NC(=O)c2cc(-n3cnnc3)ccc2Cl)cc1	>57	i
113	Cc1ccccc1[N+](=O)[O-]	.	i
114	CCC[CH2][Sn]([Cl])([Cl])[Cl]	.	?
115	CC(=O)NC1CC2CCCC(C1)N2 (stereo not drawn)	>57	i
116	Cc1ccc(O)cc1 (tested in a mixture with another compound)	.	i
117	Cc1nc2ccccc2c(=O)n1-n1cnnc1	>57	i
118	C[C@]12CC[C@@H]3[C@H](CCC4=CC(=O)CC[C@]43C)[C@]1(O)CC[C@@]2(O)C(=O)CO	.	i
119	NNCc1cccc(O)c1	.	i
120	CCCCCCn1c(=O)c(C(=O)Nc2c(C)n(C)n(-c3ccccc3)c2=O)c(O)c2ccccc21	>57	i
121	Clc1ccc2c(N3CCNCC3)ccnc2c1	>57	i
122	CCn1c(=O)cc(OCC(=O)N2CCC3(CC2)OCCO3)c2ccccc21	>57	i
123	CC(Cc1ccccc1)[n+]1cc(/N=C(\[O-])N(C)C)on1 (stereo not drawn)	>57	i
124	Cc1ccc2ccccc2c1C	.	i
125	Cc1cc(Cl)ccc1OC(C)C(=O)O (stereo not drawn)	>57	i
126	CN[C@@H](C)[C@@H](O)c1ccccc1	.	i
127	CN1C(=O)N(C)C(=O)C2(Sc3ccccc3C2=O)C1=O	>57	i
128	Cc1ccc(N=C=O)cc1N=C=O	.	i
129	CCOc1cc(C(=O)N2CCC3(CC2)OCCO3)cc(OCC)c1OCC	>57	i
130	Cc1ccc(C2(O)CCN3CCCCC32)cc1 (stereo not drawn)	>57	i
131	CC(C)C[C@H]1C(=O)N2CCC[C@@H]2[C@@]2(O)O[C@](NC(=O)[C@@H]3C=C4c5cccc6[nH]cc(c56)C[C@@H]4N(C)C3)(C(C)C)C(=O)N12	.	i
132	CCC(=NCCCO)c1c(O)n(-c2ccc(OC)cc2)c(=O)[nH]c1=O	>57	i
133	NC(N)=Nc1ccc2[nH]c3c(c2c1)C[C@]1(O)[C@@H]2Cc4ccc(O)c5c4[C@]1(CCN2CC1CC1)[C@@H]3O5	.	i
134	C=CCn1c(O)c(C=Nc2ccc(N(CC)CC)cc2)c(=O)[nH]c1=O	>25.6	.
135	CCC1(CC)C(=O)C=CNC1=O	.	i
136	CCCCn1c(O)c(C(CC)=NCc2ccc3c(c2)OCO3)c(=O)[nH]c1=O	>57	i
137	N[C@H](Cc1ccc(N(CCCl)CCCl)cc1)C(=O)O	.	i
138	O=C(c1ccccc1)c1cn(CC(=O)N2CCOCC2)c2ccccc12	>57	i
139	CN(C=O)CP(=O)(O)CN(C)C=O	>57	i
140	O=C(Oc1ccccc1)N1CCC2(CCN(Cc3nccs3)CC2)CC1	.	i

Assay outcomes (PubChem)

Only part of the results is shown, so the mix of outcomes need not match the whole.
